HPGD block: blocks human HPGD enzyme activity | P15428 | purified HPGD, NADH fluorescence kinetic, PGE2 substrate | Potency, µM, for the others: at the top dose activity change, negative = inhibition, hits mostly inhibitors | 150,000 compounds, 4.3% hits; active = well fitted inhibition curve with a large enough effect (not every such curve was filed as active); inconclusive = small, poorly fitted or top-dose-only effect, or another doubt; inactive = no such curve, though single readings can be large or run the other way;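 also: top concentration of the series not given in the record; plate controls included wells without enzyme; inactives centre near -10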
Target sequence (P15428 whole entry, looked up): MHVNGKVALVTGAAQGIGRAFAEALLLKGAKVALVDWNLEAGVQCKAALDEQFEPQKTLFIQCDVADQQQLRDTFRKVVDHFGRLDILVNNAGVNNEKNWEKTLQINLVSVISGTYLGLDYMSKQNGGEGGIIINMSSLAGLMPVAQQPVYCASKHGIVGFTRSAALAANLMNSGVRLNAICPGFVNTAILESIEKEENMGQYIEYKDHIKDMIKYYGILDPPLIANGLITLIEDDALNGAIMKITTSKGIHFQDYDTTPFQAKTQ
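20 nM HPGD preincubated 15 min at room temperature with compound in 50 mM Tris-HCl pH 8, 0.01% Tween 20. Started with 1 mM NAD+ and 30 uM prostaglandin E2; NADH fluorescence (360/450 nm) read 5 times over 30-s intervals, last minus first.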
* = called active by the depositor; ? = inconclusive; [ ] = dose if it differs, or a comment. % is scaled to controls: 0 for no effect and ±100 for the full control effect; potency is read from the fitted curve at half-maximal effect.

SMILES | HPGD block
COc1ccc(C(=O)/C=C(\C)Nc2ccc3c(c2)OCO3)cc1 | -10%
CCN(CC)S(=O)(=O)c1cccc(C(=O)N2CC(O)CC2C(=O)O)c1 (stereo not given) | -15%
CCCCn1nnnc1SCC(=O)NNC(=O)C1CCCCC1 | -13%
CN1CCCC(OC(=O)c2cc(Cl)ccc2Cl)C1 (stereo not given) | -10%
C#CCOc1ccc(/C=N/O)cc1Cl | -9%
O=C1OC(C(O)CO)C(O)=C1O (stereo not given) | 4%
COc1ccc(NC(=O)C2CCCN(C(=O)NC3CCCCC3)C2)cc1OC (stereo not given) | -13%
Cc1ccc2cccc(S(=O)(=O)NC3CCS(=O)(=O)C3)c2n1 (stereo not given) | -4%
COc1ccc(CC(=O)O/N=C(\N)Cc2ccc(OC)cc2)cc1 | -1%
Cc1ccc(SCC(=O)NC(=O)c2ccc(S(=O)(=O)N(C)C)cc2)cc1C | -18%
Cc1ccc(C2CC(c3cccc(Br)c3)Nc3nnnn32)cc1 (stereo not given) | -24%
CC1CCCC(C)N1C(=O)CSc1nnc(NC(=O)c2cccs2)s1 (stereo not given) | -9%
Cn1c(CNc2nc(-c3ccccc3)cs2)nnc1SCC(=O)c1ccccc1 | -13%
Nc1ccc(C(=O)OCc2csc(-c3ccccc3)n2)cc1[N+](=O)[O-] | -9%
COc1ccccc1N1CCN(S(=O)(=O)c2ccc(F)cc2)CC1 | -6%
COc1ccc(C(c2nnnn2Cc2cccs2)N2CCC(C(N)=O)CC2)c(OC)c1 (stereo not given) | -7%
O=C(CC(c1ccccc1)c1ccccc1)NCc1cccnc1 | ?
CC(=O)Oc1ccc(C(=O)Nc2nnc(C)s2)cc1 | -1%
CCc1ccc2[nH]c(=O)c(CN(Cc3ccccc3)Cc3nnnn3Cc3ccco3)cc2c1 | -25%
COc1ccc(C(=O)Nc2cccc(C)c2)cc1 | -18%
CCOc1cc(-c2nc(-c3ccc(C)nc3OC)no2)cc(OCC)c1OCC | -14%
NC(=O)[C@@H]1CCOc2c(I)cc([N+](=O)[O-])cc2C(=O)N[C@@H](CO)C(=O)NCC(=O)N1 | -5%
Oc1oc(-c2ccco2)nc1C=Nc1ccccc1 | -1%
Cc1oc(C(=O)O)cc1COc1ccc2c3c(c(=O)oc2c1C)CCC3 | ?
CC(C)C[C@@H](CC(=O)N[C@@H](CCC(=O)O)CC(=O)O)NC(=O)[C@@H]1CCCC[C@H]1NC(=O)C[C@H](CCCN)NC(=O)C[C@H](CO)NC(=O)[C@@H]1CCCC[C@H]1N | -2%
(more compounds)
SMILES | HPGD block
O=C(Nc1ccc(F)cc1)c1sccc1SCc1cccc(C(F)(F)F)c1 | ?
COc1ccc(S(=O)(=O)N2CCCC(C(=O)O)C2)cc1Cl (stereo not given) | -3%
CS(=O)(=O)Nc1ccccc1C(=O)NCc1ccco1 | ?
CCCOc1cccc(/C=N/NC(=O)c2csc(C)c2C)c1 | -20%
CCOc1ccc2cc(S(=O)(=O)n3ccnc3C)ccc2c1 | -24%
COC(=O)c1ccc(C(=O)OC)c(NC(=O)COC(=O)CC2CC3CCC2C3)c1 (stereo not given) | ?
Cn1c(CN2CCOCC2)nnc1SCC(=O)NCCc1ccccc1 | -9%
COc1ccc(OC)c(NC(=O)C2C3C=CC(C3)C2C(=O)NCc2ccccn2)c1 (stereo not given) | -14%
Cc1nn(-c2cc(N3CCCCC3)ccc2[N+](=O)[O-])c(=O)c2ccccc12 | -15%
Cc1cccc(/C=N/n2c(-c3ccncc3)n[nH]c2=S)c1 | 16µM*
CC(C)(C)NC(=O)NC(=O)COC(=O)COc1ccc2c(c1)CCC2 | -7%
Cc1cc(C)n(-c2nc(NCC(C)O)c3c4c(sc3n2)CCCC4)n1 (stereo not given) | ?
COc1ccc(CNC(=O)COC(=O)CCCOc2ccc(Cl)cc2Cl)cc1 | -22%
CCOc1ccccc1C1C(C#N)=C(N)Oc2cc(C)n(C)c(=O)c21 (stereo not given) | -2%
CCOC(=O)C1=C(C)NC(=O)NC1c1ccc(Cl)cc1Cl (stereo not given) | -3%
COCCN(CCOC)Cc1c(C)[nH]c2ccccc2c1=O | -13%
CCOC(=O)c1cccc(N2C(=O)Nc3ccccc3N2O)c1 | -3%
Cc1csc(NC(=O)CSc2nnc(-c3ccoc3C)o2)n1 | -17%
O=C(O)CN(CC(=O)O)c1ccccc1 | -5%
C=CCn1c(O)c(N=NC(=S)Nc2cccc(C)c2)c2ccccc21 | -29%
O=C(COc1ccccc1O)NNc1ccccc1 | -1%
Cc1cccc(NC(=O)c2sc(NC(=O)COc3ccccc3)c(C#N)c2C)c1C | -7%
O=C(NCc1ccc(F)cc1)C1CCCN(C(=O)Nc2ccccc2)C1 (stereo not given) | -5%
CC(=O)Nc1cc(-c2nn3c(C)nnc3s2)ccc1C | -30%
O=C(NCC1CCCCC1)c1nnc(C(=O)NCC2CCCCC2)c2c1[nH]c1ccccc12 | -9%

Shown comma-delimited: two of the compounds above.
molecule,HPGD block
CS(=O)(=O)Nc1ccccc1C(=O)NCc1ccco1,?
COc1ccc(CNC(=O)COC(=O)CCCOc2ccc(Cl)cc2Cl)cc1,-22%

Following part
SMILES | HPGD block
CCCCCCNC(=O)Cc1c(O)c2ccccc2[nH]c1=O | ?
O=C(CN(CCc1ccccc1)S(=O)(=O)c1ccc(Cl)cc1)N/N=C/c1ccc2c(c1)OCO2 | -9%
COC(=O)[C@@]1(Cc2ccc(OC)cc2)[C@H]2c3cc(C(=O)N4CCCC4)n(Cc4c(CO)[nH]cc(C)c4=O)c3C[C@H]2CN1C(=O)c1ccccc1 | -10%
CCC1CCCCN1CC(=O)Nc1cc(C)nn1-c1nc(C)cc(C)n1 (stereo not given) | -13%
Cc1ccc(OC(=O)c2oc3ccc(F)cc3c2C)c(C)c1 | -20%
CCCSC(=S)NC1CCS(=O)(=O)C1 (stereo not given) | -13%
CSCCC(NC(=O)COc1ccccc1)C(=O)Nc1ccc(C)cc1 (stereo not given) | -1%
CC(CNC(=O)C(C)(C)C)NC(=O)C(C)(C)C (stereo not given) | 0%
COc1ccc2oc(=O)c(/C(C)=N/Nc3nc(-c4cc(C)ccc4C)cs3)cc2c1 | -28%
CS(=O)(=O)c1sc2nc(-c3cccs3)cc(-c3ccccc3)c2c1N | ?
O=C(NCc1cccnc1)c1ccc(S(=O)(=O)N2CCOCC2)cc1 | -2%
CCC(C)NC(=O)CC1Oc2ccc(Cl)cc2NC1=O (stereo not given) | -10%
CC(C)(C)c1csc(N(CCC#N)CCC#N)n1 | -7%
C/C(=C\c1ccccc1)C(=O)Nc1cc(C)on1 | ?
CCCCCC(=O)NC(=S)Nc1ccc(Br)cc1C | 0%
O=c1ccc2ccc(O[C@@H]3O[C@H](CO)[C@@H](O)[C@H](O)[C@H]3O)c(O)c2o1 | -4%
COC(=O)c1cccc(NC(=O)C2COc3ccccc3O2)c1 (stereo not given) | -11%
COc1ccc(-n2c(Cc3cccn3C)nnc2SCC(=O)Nc2cccc(NC(C)=O)c2)cc1 | -10%
C#CCOCCOCCOCCNc1nc(N2CCOCC2)nc(N2CCN(C(=O)[C@H]([C@@H](C)CC)n3cc(CCCN=C(N)N)nn3)CC2)n1 | -10%
NC(=O)C(c1ccc(Sc2ccccc2)nn1)c1ccc(Cl)cc1Cl (stereo not given) | -18%
CCN1C(=O)/C(=C\c2ccco2)C(C(=O)OC)=C1C | -5%
CC(Cc1ccccc1)N/C=C1\CC(=O)NC1=O (stereo not given) | -11%
Cc1ccc(S(=O)(=O)Cn2nnnc2C(C(C)C)N2CCSCC2)cc1 (stereo not given) | -12%
CCCN(CCC)CC(=O)NCC1(c2ccccc2)CCOCC1 | -14%
Cc1cc(Br)ccc1OCC(=O)N(Cc1nc(-c2ccccc2)no1)C(C)C | -16%
(list continues)
SMILES | HPGD block
N#C/C(=C\c1cn(CCOc2ccccc2F)c2ccccc12)C(=O)NCc1cccs1 | 399%[activator]
O=C(CN1CCN(c2ccc(F)cc2)CC1)c1ccc2c(c1)OCO2 | -2%
O=C(CN1CCN(c2ccccn2)CC1)Nc1cccc(C(F)(F)F)c1 | 5%
CC(C)OC(=O)CSc1nnc(-c2ccccn2)n1-c1ccccc1 | -14%
COC(=O)Cc1c(C)c2ccc(OC(=O)c3ccccc3)cc2oc1=O | 37%[activator]
CCOC(=O)C1CCCN(C(=O)c2ccc(CS(=O)(=O)c3ccc(C)cc3)o2)C1 (stereo not given) | -7%
Cc1cccc(NC(=O)Cn2cnc3sc(C)c(S(=O)(=O)N4CCC(C)CC4)c3c2=O)n1 | -14%
COc1cc(O)c2c(c1)C(=O)c1cc(C)cc(O)c1C2=O | ?
CC(C)(C)CC(C)(C)NCC(O)COc1c(F)cc(Br)cc1F (stereo not given) | -5%
O=C(c1cccs1)N1CCN=C1SCc1ccccc1 | -17%
O=C(COc1ccc(F)cc1)N(CC1=CCS(=O)(=O)C1)c1ccccc1 | -8%
Cc1ccn2c(CCc3nnc4cc(C)ccn34)nnc2c1 | -1%
Cc1c(NC(=O)CSc2nnnn2Cc2ccccc2)c(=O)n(-c2ccccc2)n1C | -4%
Cc1cccc(C)c1OCC(O)CN (stereo not given) | 2%
COc1ccc(C(=O)Nn2c(SCC(=O)NC3CCCC3)nc3ccccc3c2=O)cc1 | -5%
CC(C)(C)c1ccc(C(=O)Nc2nnc(Cc3c[nH]c4ccccc34)s2)cc1 | -12%
COC(=O)c1c(NC(=O)CN2C(=O)NC(CCc3ccccc3)C2=O)sc2c1CCCCC2 (stereo not given) | -23%
Cc1ccccc1Nc1cc(C)c2c(O)cccc2n1 | ?
CC(=O)c1cc(-c2ccccc2)n(CCC(=O)NC2CCCCC2)c1C | -4%
CCOC(=O)c1ccccc1NC(=O)COc1cc(=O)n(CC)c2ccccc12 | -12%
CCOC(=O)/C=C/C(=O)N1CCc2ccccc21 | -4%
CCOC(=O)c1sc(NC(=O)c2ccco2)c(C#N)c1C | ?
CCCCC(CC)CNCC(CC)CCCC (stereo not given) | -10%
CC(C=O)Cc1ccc(C(C)(C)C)cc1 (stereo not given) | -4%
Cc1cccc(C)c1NC(=S)NC(=O)c1ccccc1F | -1%
Next results.
SMILES | HPGD block
O=C(NC1CCN(C(=O)Nc2ccccc2)CC1)C1CCCCC1 | -10%
CCc1ccc(C(=O)OCC(=O)Nc2cccc(S(=O)(=O)NC3=NCCCCC3)c2)cc1 | -8%
Cc1cccc(NC(=O)CN2C(=O)NC(Cc3ccccc3)C2=O)c1 (stereo not given) | -11%
O=C(NCc1ccc(Cl)cc1)C1CCN(S(=O)(=O)c2cc([N+](=O)[O-])ccc2Cl)CC1 | -5%
COc1ccc(-n2c(SCC(=O)Nc3nccs3)nnc2-c2ccccc2)cc1 | -17%
O=C(Nc1c(-c2ccccc2)nc2c(Br)cc(Br)cn12)c1ccco1 | -11%
O=C1C2C(C(=O)N1Cc1cccnc1)C1C=CC2C12CC2 (stereo not given) | -16%
CCOC(=O)/C=C1\SCC(=O)N1CC(O)CN1C(=O)CS/C1=C\C(=O)OCC | -6%
COC(=O)COc1ccc(Oc2cc(C)nc(SC)n2)nn1 | 0%
O=C1c2ccsc2SCCN1Cc1ccccc1Cl | -10%
CCN(CC)CC(=O)Nc1c(Br)ccc2c1OCO2 | -10%
COc1ccc(CNc2nc3c(c(=O)[nH]c(=O)n3C)n2CCCc2ccccc2)cc1 | -9%
Cc1ccc(/C=C/c2nnc(-c3ccc(C)cc3)o2)cc1 | -25%
CNC(=S)N1N=C(c2ccc(C)cc2)CC1c1ccc(OC)cc1 (stereo not given) | -3%
CCc1ccc(C(=O)COc2ccc(NC(C)=O)cc2)cc1 | -13%
CC(=O)Nc1ccc(C(=O)CSc2nnc(-c3ccc(O)cc3)n2CC2CCCO2)cc1 (stereo not given) | -15%
Cc1cc(C)cc(NC(=S)NCC2CCCO2)c1 (stereo not given) | 14µM*
COCC(=O)Nc1cc(OC)cc(OC)c1 | -4%
CCO[C@H]1O[C@@H]([C@H](COCc2ccccc2)OCc2ccccc2)[C@@H](OCc2ccccc2)[C@H]1O | 0%
Cc1cc(C(=O)N2CCN(c3ccccn3)CC2)c(C)o1 | -15%
COc1ccc2nc(N=Nc3c(O)ccc4ccccc34)sc2c1 | -1%
CC(=O)Nc1cccc(-c2cnc3ccccc3n2)c1 | -10%
CN(Cc1ccccc1)c1nc2c(c(=O)[nH]c(=O)n2C)n1CCSc1nc2ccccc2[nH]1 | -9%
Cc1c(NC(=O)C2(c3ccc(Cl)cc3)CCCC2)c(=O)n(-c2ccccc2)n1C | -14%
CCOC(=O)CSC1=Nc2ccccc2C2=NC(CC(=O)NCc3ccc4c(c3)OCO4)C(=O)N12 (stereo not given) | -16%
Cc1cccc2nc(CSc3nc4ccc([N+](=O)[O-])cc4[nH]3)c(Br)n12 | ?

Gathered by group: those above containing two or more sulfur atoms
SMILES | HPGD block
Cc1ccc2cccc(S(=O)(=O)NC3CCS(=O)(=O)C3)c2n1 (stereo not given) | -4%
Cc1ccc(SCC(=O)NC(=O)c2ccc(S(=O)(=O)N(C)C)cc2)cc1C | -18%
CC1CCCC(C)N1C(=O)CSc1nnc(NC(=O)c2cccs2)s1 (stereo not given) | -9%
Cn1c(CNc2nc(-c3ccccc3)cs2)nnc1SCC(=O)c1ccccc1 | -13%
O=C(Nc1ccc(F)cc1)c1sccc1SCc1cccc(C(F)(F)F)c1 | ?
Cc1csc(NC(=O)CSc2nnc(-c3ccoc3C)o2)n1 | -17%
CCCSC(=S)NC1CCS(=O)(=O)C1 (stereo not given) | -13%
CS(=O)(=O)c1sc2nc(-c3cccs3)cc(-c3ccccc3)c2c1N | ?
Cc1ccc(S(=O)(=O)Cn2nnnc2C(C(C)C)N2CCSCC2)cc1 (stereo not given) | -12%
Cc1cccc(NC(=O)Cn2cnc3sc(C)c(S(=O)(=O)N4CCC(C)CC4)c3c2=O)n1 | -14%
O=C(c1cccs1)N1CCN=C1SCc1ccccc1 | -17%
COc1ccc(-n2c(SCC(=O)Nc3nccs3)nnc2-c2ccccc2)cc1 | -17%
CCOC(=O)/C=C1\SCC(=O)N1CC(O)CN1C(=O)CS/C1=C\C(=O)OCC | -6%
O=C1c2ccsc2SCCN1Cc1ccccc1Cl | -10%

Bioassay records (PubChem)

Some of the compounds tested (hit frequency here may not be typical).
